Source: PubChem
PKD1 kinase inh: blocks activity of human protein kinase D1. PKD1 kinase fluorescence polarization assay. inhibition, %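 (about 10 µM by stock and volumes)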. hit rate 0.056% among 200,000. AID 797;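 active = inhibition of 50% or more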;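 also: controls were vehicle for no effect and a reference inhibitor for full effect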
Target sequence (Q15139 whole entry, looked up): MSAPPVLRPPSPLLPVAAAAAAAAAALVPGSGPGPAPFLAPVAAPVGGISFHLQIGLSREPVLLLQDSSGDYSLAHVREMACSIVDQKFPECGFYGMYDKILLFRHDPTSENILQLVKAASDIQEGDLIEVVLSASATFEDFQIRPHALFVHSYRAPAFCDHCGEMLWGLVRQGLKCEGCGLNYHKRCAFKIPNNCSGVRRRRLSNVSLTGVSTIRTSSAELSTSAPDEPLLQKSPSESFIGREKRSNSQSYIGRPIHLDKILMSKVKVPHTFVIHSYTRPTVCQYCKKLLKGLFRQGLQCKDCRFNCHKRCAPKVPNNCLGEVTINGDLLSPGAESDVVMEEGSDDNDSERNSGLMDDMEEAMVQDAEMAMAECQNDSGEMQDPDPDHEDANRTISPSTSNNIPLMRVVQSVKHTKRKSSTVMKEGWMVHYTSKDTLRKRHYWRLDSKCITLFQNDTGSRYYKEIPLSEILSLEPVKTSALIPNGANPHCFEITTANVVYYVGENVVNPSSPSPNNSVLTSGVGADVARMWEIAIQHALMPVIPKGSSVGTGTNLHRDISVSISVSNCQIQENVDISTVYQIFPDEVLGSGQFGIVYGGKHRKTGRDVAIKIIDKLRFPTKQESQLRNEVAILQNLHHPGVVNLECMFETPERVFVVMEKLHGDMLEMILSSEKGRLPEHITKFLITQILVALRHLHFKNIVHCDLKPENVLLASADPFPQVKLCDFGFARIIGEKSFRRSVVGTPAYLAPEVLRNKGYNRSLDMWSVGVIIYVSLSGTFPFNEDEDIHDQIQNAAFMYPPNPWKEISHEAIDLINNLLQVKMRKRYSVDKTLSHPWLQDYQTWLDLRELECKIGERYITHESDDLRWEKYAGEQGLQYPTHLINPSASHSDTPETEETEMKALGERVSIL
GALR2 ag: activates the human galanin receptor 2; GALR2-expressing cells, agonist activation read-out; activation, %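 (tested at 5 µM)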; hit rate 0.48% among 140,000; AID 803;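 active = above mean plus 3 SD of all compounds, about 5% in these data, not always enough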;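 also: 0% = vehicle buffer wells and 100% = reference agonist at full effect; tested in CHO reporter cells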
HSV augment: HSV replication enhancement | HSV replication augmentation in cells, fold increase | maximum fold increase | hit rate 0.005% among 220,000 | AID 1956;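 active = peak rise of 1.5-fold or more in the series; tested in PC3 cells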;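 also: first round at 10 µM; read as green reporter fluorescence; hits show the peak of a series up to 25 µM; 1 = signal of infected wells without compound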
Insulin prom inh: TRM-6 insulin promoter activity inhibition; AID 1273; inhibition, % at 2 µM; hit rate 0.9% among 130,000; TRM-6 cells (human fetal islet line), insulin promoter-eGFP reporter, imaging; reporter expression induced with tamoxifen;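 active = inhibition above the mean plus 3 SD, with well images judged a real hit on visual review, cut at about 60% in these data, passing the limit was not always enough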
RGS16-Gao: regulators of human RGS16-Galphao interaction; bead-based flow cytometry RGS16-Galphao binding, fluorescence; actives lie on both sides; hit rate 0.38% among 220,000; O15492+P09471; binding response (% of control), % at 10 µM;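 active = below 25% or above 175%, edge rows of some plates excepted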;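 also: Galphao activated by GDP with aluminum fluoride before binding; 100% = wells without compound and 0% = beads without RGS; some results beyond the cut were filed as inactive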
Insulin prom inh cell count: also measured in Insulin prom inh; calls as there; normalized cell count, %; measured here: cell count, toxicity; reference of the scale not given here;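 cells exposed to compound for 48 h; stained nuclei by imaging scaled within each plate; lower means fewer cells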
HSV augment primary fold: second read-out of HSV augment, no call of its own (marks repeat the call); fold increase; compound at 10 µM; measured here: primary screen fold increase 10 uM; tested in PC3 cells;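 GFP signal in the first replicate; 1 = infected wells without compound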
* marks the source's active call; other numbers are inactive results; i = inactive; x = not tested or not shown. Not a hit list; about 1.3% have a hit in one of these screens.

Screens in order – PKD1 kinase inh	GALR2 ag	HSV augment	HSV augment primary fold	Insulin prom inh	Insulin prom inh cell count	RGS16-Gao
- O=C1CSC(c2ccccc2)N1CC12CC3CC(CC(O)(C3)C1)C2 (stereo not given)
  -13	-2.6	i	0.97	44	100	112
- COc1cc(OC)c2ccc(=O)oc2c1C(CC(=O)N1CCCC1)c1ccc(N(C)C)cc1 (stereo not given)
  x	x	i	0.73	x	x	85
- COc1cc(/C=C/C(=O)OCC(=O)NCc2cccs2)ccc1OC(F)F
  -4	-1.9	i	0.99	-144	26	103
- CC1Cc2ccccc2N1CC(=O)NC(=O)NC1CCCCC1 (stereo not given)
  1	x	i	0.94	x	x	-149
- CCOC(=O)c1cccnc1SCC(=O)Nc1ccc(C)cc1
  3	x	i	0.93	x	x	94
- COc1cc(/C=N/NC(=O)c2ccncc2)ccc1OCc1cnc(Cl)s1
  -7	x	i	1.1	-240	67	109
- CCOc1cc(NC(=O)CC(C)C)c(OCC)cc1NC(=O)CCn1nnc2ccccc21
  -4	-0.5	i	0.73	-45	71	102
- CCOc1ccccc1N1CC(C(=O)Nc2cccc(S(=O)(=O)N3CCCCC3)c2)CC1=O (stereo not given)
  -5	x	i	0.83	x	x	103
- Cc1ccc(Nc2cc(=O)[nH]c(=O)[nH]2)c(C)c1
  -4	-0.4	x	x	26	93	107
- O=C(NCCCN1CCCCCC1)c1ccc2c(Cl)c3c(nc2c1)CCCC3
  3	x	i	1	-100	100	89
- Cc1ncc([N+](=O)[O-])n1CCOC(=O)NC(NCc1ccccc1)C(Cl)(Cl)Cl (stereo not given)
  1	-2.0	i	0.95	-133	115	111
- COC(=O)c1cc(N2CCNCC2)nc2ccccc12
  x	x	i	0.97	x	x	117
- O=C(NCCCn1ccnc1)/C(=C/c1ccccc1)NC(=O)c1ccccc1
  4	x	i	0.99	-64	46	88
- CCOc1ccc(OCC)c(C2C(C#N)=C(N)N(c3cccnc3)C3=C2C(=O)CC(C)(C)C3)c1 (stereo not given)
  2	-3.0	i	0.91	-169	53	97
- CC(=O)Nc1cc2c(cc1Br)OCCO2
  -8	-0.7	i	0.91	0	144	77

The results go on.
Screens in order – PKD1 kinase inh	GALR2 ag	HSV augment	HSV augment primary fold	Insulin prom inh	Insulin prom inh cell count	RGS16-Gao
- CCC(=O)N1CCN(c2ccc(Cl)cc2NC(=O)c2ccc3c(c2)OCCO3)CC1
  -4	0.1	i	0.7	22	62	-0.4*
- CC(C)C(=O)N1CCN(c2ccc(NC(=O)COc3ccccc3[N+](=O)[O-])cc2)CC1
  1	x	i	0.91	x	x	102
- CN(C)C(=O)N1CCC(C(=O)NCc2ccc(F)cc2)CC1
  3	-1.1	i	0.94	x	x	106
- c1cncc(-c2nc(NCC3COc4ccccc4O3)c3ccccc3n2)c1 (stereo not given)
  -6	-0.9	x	x	9	143	104
- COc1ccccc1N(CC(=O)NC1CCCC1)C(=O)c1csnn1
  2	-1.7	i	1	x	x	103
- Cc1nc2nc(C)c(CCC(=O)Nc3ccc4c(c3)OCO4)c(C)n2n1
  -5	-3.4	i	0.96	x	x	95
- O=c1[nH]nc(-c2ccc(F)cc2)cc1Cc1cccs1
  x	x	i	1.1	x	x	95
- CCc1ccc(/C=C/C(=O)c2ccc(S(=O)(=O)N(C)C)cc2)cc1
  3	-0.3	i	0.93	x	x	106
- CN(C(=O)c1ccc2c(c1)OCO2)C1(C(=O)NC2CCCC2)CCCCC1
  -1	-1.3	i	0.85	-31	69	103
- O=C(CN1CCN(S(=O)(=O)c2ccc(Br)cc2)CC1)N/N=C/c1cccnc1
  -1	-1.0	i	0.99	x	x	82
- COc1ccc(CNC2CCCCC2C)c(OC)c1 (stereo not given)
  -16	-0.6	i	0.71	13	56	270
- CC1CCN(C(=O)CSc2nnc(Cn3c(=O)sc4ccccc43)n2C)CC1
  20	-0.3	i	0.96	x	x	108
- N#Cc1c(-c2cccc(F)c2)cc(-c2ccccc2)nc1Br
  -2	-1.7	i	0.99	0	76	94
- CCC(C)(C)NC(=O)C(c1ccc(C)cc1)N(Cc1cccnc1)C(=O)c1csnn1 (stereo not given)
  -2	-0.2	i	0.91	-143	76	100
- Cc1nn(C)c(N)c1[N+](=O)[O-]
  x	x	i	0.97	x	x	104

The list continues.
Screens in order – PKD1 kinase inh	GALR2 ag	HSV augment	HSV augment primary fold	Insulin prom inh	Insulin prom inh cell count	RGS16-Gao
- Cc1ccc(S(=O)(=O)CCC(=O)Nc2ccc(S(=O)(=O)N(C)C)cc2)cc1
  1	x	i	0.82	-25	117	94
- O=C(N/N=C/CCc1ccccc1)c1ccccc1
  -7	-2.8	i	1	x	x	100
- COc1ccc(CC(=O)NNC(=O)c2nn(Cc3ccccc3)c(=O)c3ccccc23)cc1OC
  x	x	i	0.97	x	x	102
- Cc1cc(NC(=O)c2cc(-c3cccc(Cl)c3)on2)no1
  1	-2.2	i	1	x	x	37
- Cc1ccc(S(=O)(=O)c2nc(NN(C)C)sc2Cl)cc1
  -8	x	i	0.91	x	x	103
- O=C1CCC2c3ccc4ccccc4c3CCN12 (stereo not given)
  5	-2.2	i	0.96	-319	46	65
- Cc1cc2ccccc2n1CCNC(=O)COc1ccccc1
  4	x	i	0.9	x	x	101
- Cc1noc(C)c1CSc1nnc(-c2ccncc2)n1-c1ccc(Cl)c(Cl)c1
  -8	-0.6	i	1	-6	75	101
- CCOC(=O)c1ccc(NC(=O)CSC2=NC(=O)C(CC)C(=O)N2)cc1 (stereo not given)
  -13	-0.7	i	0.9	-3	76	98
- CCc1ccc(NC(=O)CSc2nc3ccccc3c(=O)n2CCCC(=O)N2CCCC2)cc1
  -3	-1.7	i	1.2	-3	109	100
- COc1ccc(-c2ccc(F)cc2)cc1[C@H]1[C@H]2C=CC[C@@H](C)[C@@H]2C(=O)N1Cc1ccccc1
  x	x	i	1	x	x	90
- Cc1nc(NCc2ccco2)c2oc3ccccc3c2n1
  3	-1.7	x	x	x	x	102
- CSCc1ccc(C(=O)Nc2ccc(C(N)=O)cc2)cc1
  -7	x	i	0.98	-6	111	103
- S=c1[nH]nc(-c2ccccn2)n1/N=C/c1ccc(-c2ccccc2Cl)o1
  -6	x	i	0.86	x	x	96
- CCCCn1c2ccccc2c2nnc(SCC(=O)NC3=NN=C(c4ccccc4)CS3)nc21
  2	-0.7	i	1.1	x	x	69

(listing goes on)
Screens in order – PKD1 kinase inh	GALR2 ag	HSV augment	HSV augment primary fold	Insulin prom inh	Insulin prom inh cell count	RGS16-Gao
- CC(=O)Nc1ccc(NC(=O)COC(=O)c2cnccn2)cc1
  -7	x	i	0.99	x	x	99
- Cc1cccc(C2c3[nH]c4ccccc4c3CCN2Cc2cccn2-c2ncccn2)c1 (stereo not given)
  -3	x	i	0.99	x	x	101
- CCOC(=O)CSc1nnc(N)s1
  -6	-1.4	i	0.87	x	x	102
- Cc1cc(C)c2[nH]c(C(=O)Nc3ccc4c(c3)OCO4)cc2c1
  x	x	i	0.93	x	x	100
- Cc1nnc(SCC(=O)Nc2ccc3c(c2)OCO3)o1
  0	-1.2	i	0.83	-23	106	102
- COc1ccccc1NS(=O)(=O)c1ccc(NC(C)=O)cc1
  3	-1.9	i	0.96	-17	90	102
- C=CCn1c(SCC(=O)NCc2ccc3c(c2)OCO3)nnc1C1COc2ccccc2O1 (stereo not given)
  6	7.0	i	0.88	-57	159	100
- COc1ccccc1N1CCN(CCOc2c(OC)cccc2OC)CC1
  -5	-1.5	i	0.85	-12	56	92
- Cc1ccc(C(=O)N/C(=C\c2cccs2)C(=O)NCC2CCCO2)cc1C (stereo not given)
  -5	-1.6	i	0.96	-22	99	112
- O=C1CCC(=O)N1OCCCCOc1ccccc1
  0	-2.8	i	0.94	-345	113	104
- CCOC(=O)N1CCC(N2C(=O)c3ccccc3C2Nc2cc(Cl)c(OC)cc2OC)CC1 (stereo not given)
  -1	-1.5	i	0.81	x	x	103
- CSc1nc2nccc(-c3ccc(Cl)cc3)n2n1
  1	-0.8	i	1	-68	75	90
- O=C(N=Nc1c(O)[nH]c2ccccc12)c1ccco1
  5	x	i	0.95	-39	82	100
- Cc1cc(=O)[nH]c2c1cnn2Cc1ccccc1
  -4	-0.6	i	1	3	94	100
- CC(C)Nc1nnc(SCC(=O)/C=C2\N(C)c3ccccc3C2(C)C)s1
  2	-1.5	i	1.1	x	x	103

Next part.
Screens in order – PKD1 kinase inh	GALR2 ag	HSV augment	HSV augment primary fold	Insulin prom inh	Insulin prom inh cell count	RGS16-Gao
- CCCCC(=O)NNC(=S)NCc1ccccc1
  2	x	i	0.92	x	x	101
- CC(=O)c1cccc(NC(=O)c2cc(C(C)C)on2)c1
  -17	-1.1	i	1	x	x	109
- O=C(NC1CC1)c1cccc(Br)c1
  -4	-1.4	i	1	3	91	104
- COc1ccc(OC)c(NC(=O)Nc2cccc3ccccc23)c1
  11	-1.7	i	1	-12	119	99
- CC(C)(O)c1nnn(-c2ccccc2)c1C(F)(F)F
  3	-1.3	i	1	-6	72	106
- COc1ccc(C(=O)Nc2ccccc2C(=O)N(Cc2ccco2)C(C(N)=O)C(C)C)cc1 (stereo not given)
  11	-1.9	i	0.86	35	144	333
- CCOc1ccccc1Oc1c(C)oc2c(CN3CCN(C)CC3)c(O)ccc2c1=O
  5	-2.0	i	0.93	21	53	99
- CCCCC(NC(C)=O)c1nc2ccccc2n1CCC (stereo not given)
  -9	-1.0	i	0.92	-37	118	128
- O=S(=O)(Nc1ncccn1)c1ccc(NC(=S)NCCc2ccc(Cl)cc2)cc1
  1	x	i	1	x	x	101
- Cc1cc(C)nc(NC(=O)c2c(-c3c(Cl)cccc3Cl)noc2C)n1
  -11	-1.5	i	1	-19	90	102
- Cc1ccc(OCc2nnc(N)s2)cc1
  -2	x	i	0.91	22	74	108
- CSc1nc(Cl)cc(Nc2ccccc2N)n1
  -1	x	i	0.9	13	84	99

Structural class: the compounds so far containing an aryl methoxy group
Screens in order – PKD1 kinase inh	GALR2 ag	HSV augment	HSV augment primary fold	Insulin prom inh	Insulin prom inh cell count	RGS16-Gao
- COc1cc(OC)c2ccc(=O)oc2c1C(CC(=O)N1CCCC1)c1ccc(N(C)C)cc1 (stereo not given)
  x	x	i	0.73	x	x	85
- COc1cc(/C=C/C(=O)OCC(=O)NCc2cccs2)ccc1OC(F)F
  -4	-1.9	i	0.99	-144	26	103
- COc1cc(/C=N/NC(=O)c2ccncc2)ccc1OCc1cnc(Cl)s1
  -7	x	i	1.1	-240	67	109
- COc1ccccc1N(CC(=O)NC1CCCC1)C(=O)c1csnn1
  2	-1.7	i	1	x	x	103
- COc1ccc(CNC2CCCCC2C)c(OC)c1 (stereo not given)
  -16	-0.6	i	0.71	13	56	270
- COc1ccc(CC(=O)NNC(=O)c2nn(Cc3ccccc3)c(=O)c3ccccc23)cc1OC
  x	x	i	0.97	x	x	102
- COc1ccc(-c2ccc(F)cc2)cc1[C@H]1[C@H]2C=CC[C@@H](C)[C@@H]2C(=O)N1Cc1ccccc1
  x	x	i	1	x	x	90
- COc1ccccc1NS(=O)(=O)c1ccc(NC(C)=O)cc1
  3	-1.9	i	0.96	-17	90	102
- COc1ccccc1N1CCN(CCOc2c(OC)cccc2OC)CC1
  -5	-1.5	i	0.85	-12	56	92
- CCOC(=O)N1CCC(N2C(=O)c3ccccc3C2Nc2cc(Cl)c(OC)cc2OC)CC1 (stereo not given)
  -1	-1.5	i	0.81	x	x	103
- COc1ccc(OC)c(NC(=O)Nc2cccc3ccccc23)c1
  11	-1.7	i	1	-12	119	99
- COc1ccc(C(=O)Nc2ccccc2C(=O)N(Cc2ccco2)C(C(N)=O)C(C)C)cc1 (stereo not given)
  11	-1.9	i	0.86	35	144	333

Single records, from the list above. Order of screens: PKD1 kinase inh | GALR2 ag | HSV augment | HSV augment primary fold | Insulin prom inh | Insulin prom inh cell count | RGS16-Gao
CCOc1ccccc1Oc1c(C)oc2c(CN3CCN(C)CC3)c(O)ccc2c1=O is listed as 5 | -2.0 | i | 0.93 | 21 | 53 | 99
CC(=O)c1cccc(NC(=O)c2cc(C(C)C)on2)c1 is listed as -17 | -1.1 | i | 1 | x | x | 109
